Source: PubChem BioAssay
Lassa entry inh = qHTS for Inhibitors of binding or entry into cells for Lassa Virus. Lassa virus pseudotype entry inhibition, cell reporter; control for the full effect not named in the record. Potency, µM (doses to about 37.9 µM), without a hit: at the highest dose activity change, negative = inhibition, most hits filed as inhibitors. hit rate 1.2% among 300,000; active means well fitted inhibition curve with a large enough effect; inconclusive means small, poorly fitted or top-dose-only effect, or effect the other way; inactive means flat fitted curve, though single readings scatter; tested in HEK293 cells; also: % is scaled to controls: 0 for no effect and ±100 for the full control effect; nearly all actives have a fitted effect of over 50% in size; luciferase read-out
SARS PLpro yeast = qHTS of Yeast-based Assay for SARS-CoV PLP; hit rate 0.19% among 330,000; S. cerevisiae expressing SARS-CoV PLpro, growth rescue; control for the full effect not named in the record; Potency, µM (series often up to 32.9 µM), for the others: top-dose activity, positive = growth rescue; also: 0% is about no effect; nearly all actives have a fitted effect of over 55% in size; growth read by luminescence after 48 h
Cruzain Triton = qHTS Assay for Promiscuous and Specific Inhibitors of Cruzain (with detergent); Cruzipain (Trypanosoma cruzi), P25779; purified cruzain, Z-FR-AMC fluorescence, 0.01% Triton; Potency, µM, without a hit: max response, negative = inhibition, hits mostly inhibitors; hit rate 0.43% among 200,000; active = well fitted curve in the direction sought with a large enough effect; inconclusive = small, poorly fitted or top-dose-only effect, or another doubt; inactive = no such curve, though single readings can be large; an effect the other way counts as inactive or inconclusive;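 also: plate controls were neutral wells for no effect and buffer without enzyme for full effect; nearly all actives have a fitted effect of over 40% in size; top concentration of the series not given in the record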
Target sequence (P25779 123-467 limits assumed): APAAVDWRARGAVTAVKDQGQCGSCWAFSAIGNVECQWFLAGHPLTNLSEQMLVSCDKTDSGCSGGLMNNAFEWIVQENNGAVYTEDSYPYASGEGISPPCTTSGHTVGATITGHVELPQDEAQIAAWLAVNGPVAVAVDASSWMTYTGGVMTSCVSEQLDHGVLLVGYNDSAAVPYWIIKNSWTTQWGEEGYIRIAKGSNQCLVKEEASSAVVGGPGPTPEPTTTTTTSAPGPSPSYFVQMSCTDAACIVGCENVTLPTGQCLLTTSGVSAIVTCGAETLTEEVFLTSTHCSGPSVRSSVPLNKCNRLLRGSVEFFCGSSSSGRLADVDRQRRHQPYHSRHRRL
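Detergent-containing run (0.01% Triton X-100) in acetate buffer pH 5.5 with 5 mM DTT: enzyme at 1.5 nM final, 15 min compound preincubation at room temperature, then 2 uM Z-FR-AMC substrate. Activity taken as 60 s fluorescence increase at 360/450 nm.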
RE007 growth inh = qHTS Assay for Inhibitors of the HIV-1 protein Vpr. S. pombe RE007 Vpr strain, BacTiter-Glo ATP luminescence, 24 h; control for the full effect not named in the record. Potency, µM (titrated, usually from 92.2 µM), for the others: at the top dose activity change, negative = less growth. hit rate 0.21% among 360,000. AID 651644, 2012; active = well fitted falling curve with a large enough effect; inconclusive = small, poorly fitted or top-dose-only effect; inactive = no such curve, though single readings can be large or run the other way;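 also: % is scaled to controls: 0 for no effect and ±100 for the full control effect; nearly all actives have a fitted effect of over 50% in size; the assay follows cell death caused by Vpr and the record does not say whether a fall means rescue or toxicity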
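Fission yeast strain RE007, carrying one chromosomally integrated HIV-1 vpr copy, was seeded at OD 0.01 in PMG+AL medium with 23 nL pinned compound. After 24 h at 30 °C and 99% humidity, viability was read by BacTiter-Glo luminescence.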
Cruzain noTriton = qHTS Assay for Promiscuous and Specific Inhibitors of Cruzain (without detergent); Cruzipain (Trypanosoma cruzi), P25779; purified cruzain, Z-FR-AMC fluorescence, no detergent; Potency, µM, for the others: max response, negative = inhibition, hits mostly inhibitors; hit rate 2.3% among 200,000; active = well fitted curve in the direction sought with a large enough effect; inconclusive = small, poorly fitted or top-dose-only effect, or another doubt; inactive = no such curve, though single readings can be large; an effect the other way counts as inactive or inconclusive;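 also: plate controls were enzyme without inhibitor for no effect and buffer without enzyme for full effect; nearly all actives have a fitted effect of over 40% in size; top concentration of the series not given in the record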
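Detergent-free condition (0.00005% Triton X-100) in acetate buffer pH 5.5 with DTT. 1.5 nM enzyme and compound were pre-mixed 15 min, then 2 uM Z-FR-AMC substrate added; reaction progress from fluorescence change between first and third reads (60 s).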
NS1 function inh = qHTS Assay for Inhibitors of Influenza NS1 Protein Function; S. cerevisiae slowed by influenza A NS1, growth recovery by OD600; Potency, µM (titrated, usually from 46.1 µM), without a hit: at the highest dose activity, positive = more growth; hit rate 0.4% among 270,000; AID 2326, 2010; also: actives are rising curves; nearly all actives have a fitted effect of over 50% in size
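Read-out: OD600 growth recovery of NS1-expressing budding yeast. Cells grown overnight at 30C in -URA glucose medium, washed, resuspended and diluted 1:100 in 2% galactose assay medium, pH 6.0. Same strain lacking NS1 served as positive control.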
2A StopGo = High Throughput Screening for Foot and Mouth Disease Virus Antivirals. hit rate 1.2% among 410,000. AID 1159524, 2015. Potency, µM (titrated, usually from 57.9 µM), for inactives: at the top dose signal change, negative = less light. human cells with a luciferase reporter of 2A StopGo recoding; control for the full effect not named in the record; active = well fitted falling curve with a large enough effect; inconclusive = small, poorly fitted or top-dose-only effect; inactive = no such curve, though single readings can be large or run the other way; tested in HEK293T cells; also: % is scaled to controls: 0 for no effect and ±100 for the full control effect; nearly all actives have a fitted effect of over 45% in size; luciferase light after 4 h
Marburg entry inh = qHTS for inhibitors of binding or entry into cells for Marburg Virus | Marburg virus pseudotyped entry inhibition, cell reporter; control for the full effect not named in the record; about a third of the inactives were read at about 46 µM | Potency, µM (doses to about 37.8 µM), without a hit: at the highest dose activity change, negative = inhibition, most hits filed as inhibitors | hit rate 1.8% among 300,000; active = well fitted inhibition curve with a large enough effect; inconclusive = small, poorly fitted or top-dose-only effect, or effect the other way; inactive = flat fitted curve, though single readings scatter; tested in HEK293 cells; about a fifth of its hits are not listed in these tables; also: % is scaled to controls: 0 for no effect and ±100 for the full control effect; luciferase read-out
An asterisk follows results filed as active; ? = inconclusive; . = no result given; [ ] = another dose, or the depositor's remark. Unless noted, calls follow the shape of the dose curve; as a rule, active means well fitted rising curve with a large enough effect; inconclusive means small, poorly fitted or top-dose-only effect; inactive means no such curve, though single readings can be large or run the other way. Potency is read from the fitted curve at half-maximal effect.

SMILES	Lassa entry inh	SARS PLpro yeast	Cruzain Triton	RE007 growth inh	Cruzain noTriton	NS1 function inh	2A StopGo	Marburg entry inh
CCc1ccccc1N(CC(=O)N1CCCCCC1)S(C)(=O)=O	-18.2%[46.1 µM]	1.9%	.	-1.7%	.	24.7%	-8.3%	18.6%[46.1 µM]
CCc1ccc(S(=O)(=O)Nc2cccc(-c3ccc4nnc(C)n4n3)c2)s1	-17.2%	-1.8%	.	-3.6%	.	.	-1.4%	?
O=C(O)CNC(=O)/C(=C/c1cccc([N+](=O)[O-])c1)NC(=O)c1ccco1	21.8%	20.0%	-4.1%	22.7%	0.7%	0.3%	-8.6%	?
COC(=O)c1ccc(C(=O)OC)c(NC(=O)CSc2nnc(-c3ccccc3Cl)o2)c1	?	.	.	15.1%	.	-38.5%	?	?
C/C(=N\NC(=O)c1nnn(-c2nonc2N)c1CSc1ccccc1)c1ccco1	.	5.1%	.	-3.2%	.	7.0%	-18.4%	.
COc1cccc(OCc2nc3ccccc3n2Cc2ccccc2C)c1	-22.6%[46.1 µM]	.	-6.1%	.	1.0%	.	-24.4%	26.5%[46.1 µM]
N#Cc1c(SCC(=O)N2CCCCC2)nsc1SCC(=O)N1CCCCC1	-21.8%	-0.8%	2.4%	-12.9%	0.5%	-8.9%	-10.6%	-17.6%
Cc1cccc(N2CCN(C(=O)c3ccc4c(c3)N(Cc3cccc(Cl)c3)C(=O)c3ccccc3S4(=O)=O)CC2)c1C	25.6%[46.1 µM]	.	1.1%	.	-12.2%	.	0.0%	.
Cc1ccc2c(c1)C(c1ccc(F)cc1)N(C(=O)C(C)C)CC(=O)N2 (stereo not drawn)	13.4%[46.1 µM]	.	1.0%	.	-2.8%	.	8.91µM*	5.7%[46.1 µM]
Cc1ccc(CNC(=O)C2CCN(c3nc4ccc(C)cc4[nH]3)CC2)cc1	?	.	-7.7%	.	5.2%	.	-1.1%	.
Oc1ccccc1CN1CCCC(N2CCN(c3cccc(C(F)(F)F)c3)CC2)C1 (stereo not drawn)	.	-5.4%	.	-8.2%	.	-18.4%	-30.0%	.
CCOc1cc(C2NC(=O)c3c(sc4c3CCN(C)C4)N2)ccc1OC(=O)c1ccccc1Cl (stereo not drawn)	1.2%[46.1 µM]	.	-6.7%	.	9.2%	.	-6.3%	7.5%[46.1 µM]
Cc1ccc(CNC(=O)CSc2nc(C)cc(C)c2C#N)cc1	?	-0.4%	3.0%	-10.2%	-5.4%	-28.8%	-14.9%	-12.1%[46.1 µM]
N#CCCn1c2ccccc2c2nc3ccccc3nc21	19.6%	?	-1.5%	-19.2%	0.0%	-25.4%	-27.9%	29.8%[46.1 µM]
O=C(N/N=C/c1ccc2c(c1)OCO2)C(=O)Nc1ccccc1	11.1%[46.1 µM]	-0.1%	.	10.4%	.	1.3%	13.9%	?
COc1ccc(OC)c(S(=O)(=O)N(C)CC(=O)N2CCc3ccccc3C2)c1	-7.6%	.	-0.1%	-6.5%	8.2%	-11.7%	1.7%	7.0%
COCCNC(=O)CN(C(=O)CCC(=O)Nc1ccccn1)c1ccc(C)c(C)c1	2.7%[46.1 µM]	2.6%	.	0.5%	.	20.4%	-5.5%	7.5%[46.1 µM]
COc1ccc(-n2c(SC(CN3CCCCC3)CN3CCCC3=O)nc3ccccc3c2=O)cc1 (stereo not drawn)	?	3.7%	2.2%	-4.4%	-15.4%	7.5%	5.7%	?
COC(=O)c1c[nH]c2c1-c1cc(C(=O)OCc3ccccc3)n(S(=O)(=O)c3ccc(C)cc3)c1C(=O)C2=O	?	.	.	-7.6%	.	.	7.94µM*	-15.9%
Cc1ccc(S(=O)(=O)N2CCN(C(=O)c3cccs3)CC2)cc1	-9.8%	-1.4%	.	8.9%	.	2.4%	-20.1%	8.8%[46.1 µM]
CCOc1ccc(NC(=O)CN2CCN(CC(=O)Nc3ccc(F)c(F)c3)CC2)cc1	-0.7%	-7.1%	-2.8%	11.0%	-4.2%	-31.6%	-10.9%	?
CCn1c(SCc2cccc(C(=O)O)c2)nnc1-c1ccccc1	-5.3%	2.4%	1.0%	12.7%	0.6%	3.9%	35.3%[activator]	24.4%
COCC(C)NC(=O)c1ccccc1OC(C)=O (stereo not drawn)	0.0%	-0.3%	6.9%	2.7%	-1.5%	14.3%	2.2%	-3.2%
O=C(COC(=O)c1cc(Br)ccc1Cl)NC1CC1	0.5%	-10.2%	-0.9%	-0.1%	-2.3%	0.1%	0.1%	10.5%
C=CCn1c(-c2ccccc2[N+](=O)[O-])n[nH]c1=S	-14.6%[46.1 µM]	0.4%	.	7.7%	.	7.0%	9.8%	15.2%[46.1 µM]
Following part:
SMILES	Lassa entry inh	SARS PLpro yeast	Cruzain Triton	RE007 growth inh	Cruzain noTriton	NS1 function inh	2A StopGo	Marburg entry inh
COc1ccccc1N1CCN(Cc2cc(=O)c(OCC#N)co2)CC1	6.1%[46.1 µM]	2.7%	.	-1.7%	.	6.9%	-12.7%	24.9%[46.1 µM]
CC1CCCN(S(=O)(=O)c2cc(Cl)ccc2Cl)C1 (stereo not drawn)	42.1%[14.3 µM]	-9.8%	-5.5%	-5.2%	-7.3%	0.5%	-5.3%	28.9%
Cc1ccc2[nH]c(C(=O)O)c(NC(=O)[C@@H]3C[C@@H]3c3ccccc3)c2c1	-0.2%[46.1 µM]	-0.3%	.	4.1%	.	-7.9%	-9.0%	1.1%[46.1 µM]
Cc1cc(C)n(-c2ccc(C(=O)Nc3cccnc3)cc2)n1	-0.6%	0.3%	.	26.2%	.	-0.8%	13.2%	17.9%
COC(=O)c1sccc1NC(=O)Nc1cc(OC)ccc1OC	21.5%[46.1 µM]	1.3%	.	18.9%	.	0.7%	-2.5%	27.5%[46.1 µM]
O=C(NCc1ccc2c(c1)OCO2)Nc1ccc(F)cc1	.	-4.9%	.	-15.8%	.	4.5%	37.8%[activator]	.
N#CCCN(C(=O)Nc1ccc(Cl)c(Cl)c1)c1ccccc1	-3.3%	-16.1%	-4.3%	14.7%	-11.7%	-54.8%	-26.6%	-1.4%
Cn1nc(C(=O)N2CCN(c3ccc(F)cc3)CC2)c2c1-c1ccccc1SC2	12.2%[46.1 µM]	.	-0.5%	.	-22.7%	.	-24.5%	-19.1%[46.1 µM]
CCc1nn(CC(=O)NCc2cccnc2)c(=O)c2cc3occc3n12	18.7%[46.1 µM]	3.6%	.	-6.7%	.	20.4%	-5.4%	4.6%[46.1 µM]
C=CCOc1ccc(CNn2c(C)n[nH]c2=S)cc1OC	?	2.8%	-2.1%	14.3%	13.7%	20.0%	?	1.3%
O=C(NCC(=O)N1CCCCCCC1)c1ccccc1Br	-0.9%	7.7%	.	62.0%	.	.	28.7%	-4.1%
COC(=O)c1cc(OC)c(OC)cc1NC(=S)N1CCN(c2ccccn2)CC1	-0.8%	-0.2%	.	-9.3%	.	-1.9%	-19.9%	.
Cc1cccc(C)c1NC(=O)C1CCCN1C(=O)Nc1cccc(F)c1 (stereo not drawn)	-9.9%[46.1 µM]	-0.1%	.	-1.7%	.	4.5%	21.2%	-11.8%[46.1 µM]
CCOC(=O)c1c(C)oc2nc(C)nc(NCC3CCN(Cc4ccc(C)cc4)CC3)c12	16.9%[46.1 µM]	.	-0.2%	.	-4.1%	.	-15.8%	.
CC(C)Oc1ccccc1C1(c2ccccc2)NC(=O)NC1=O (stereo not drawn)	.	1.4%	.	-15.3%	.	8.2%	-0.6%	.
O=c1[nH]ncc2c3ccccc3n(Cc3ccc(F)cc3)c12	-15.6%	6.1%	-0.9%	27.8%	-3.7%	-2.1%	0.0%	-4.8%
CCOc1ccc(-c2cn(S(=O)(=O)c3cccc4nsnc34)nc2N)cc1	-22.8%	0.7%	-2.7%	-0.9%	?	-29.9%	-21.3%	?
CCOC(=O)CCN1C(=O)c2ccccc2Sc2ncccc21	?	1.6%	.	-9.8%	.	4.9%	8.0%	5.6%
O=C(Nc1cccc(Cl)c1)c1ccc2c(c1)OCCO2	?	-7.2%	.	-21.2%	.	-113.3%	?	?
CCSc1ccccc1C(=O)NCc1ccc(OC)cc1	-19.1%	-9.7%	-0.2%	4.8%	3.9%	-53.9%	-0.7%	0.3%
CN(CC(=O)Nc1ccc(Cl)cc1)C1CCCCC1	.	7.3%	.	-0.9%	.	-15.1%	-13.9%	.
CCCS(=O)(=O)c1c(S(=O)(=O)CCC)c2cc(-c3ccncc3)ccn2c1C(=O)OC	0.0%	0.0%	.	-9.2%	.	-6.4%	23.2%	5.62µM*
O=C(N/N=C/c1cccnc1)C(=O)N1CCCCCC1	3.8%	0.8%	.	-10.4%	.	1.6%	9.8%	-0.2%
C/C(N)=C(/C#N)C(=O)CSc1nc2cc(Cl)ccc2c(=O)n1-c1ccc(C)cc1	-11.3%	13.5%	-2.9%	0.0%	-3.2%	1.9%	-17.4%	3.3%
O=C(NCCCO)C(=O)NCC(c1ccc2c(c1)OCO2)N1CCN(c2ccc(F)cc2)CC1 (stereo not drawn)	.	7.6%	.	7.4%	.	2.24µM*	-21.6%	.
COc1ccccc1OCC(=O)Nc1ccc(S(=O)(=O)Nc2cc(C)nc(C)n2)cc1	3.1%	3.9%	4.8%	-2.4%	8.0%	4.7%	35.8%[activator]	?
Cn1cc(CN(C(=O)Nc2ccccc2)C2CCCCC2)c2ccccc21	?	.	-7.5%	.	-3.4%	.	26.5%	-3.4%[46.1 µM]
CCC(=O)N1CCc2cc(S(=O)(=O)CCC(=O)N3CCN(c4ccccc4Cl)CC3)ccc21	4.2%[46.1 µM]	.	-0.8%	.	-10.8%	.	-20.8%	3.3%[46.1 µM]
CCOc1ccc(CN2C(=O)c3ccccc3C2C(=O)NCC2CCCO2)cc1 (stereo not drawn)	?	-0.4%	.	18.6%	.	-6.6%	8.5%	14.5%[46.1 µM]
CC1CCC(C(O)(C(=O)O)C2CCCCC2)CC1C (stereo not drawn)	-0.3%	.	.	12.9%	.	.	-25.6%	-8.1%
